Source: PubChem
ClpP mod – qHTS Assay for Activators of ClpP; ATP-dependent Clp protease proteolytic subunit (Bacillus subtilis (strain 168)), P80244; purified B. subtilis ClpP, FRET peptide cleavage, 20 min; Potency, µM (series often up to 57.5 µM), inactives show at the top dose activity change, negative = active; 1.9% of 340,000 active; active = well fitted falling curve with a large enough effect; inconclusive = small, poorly fitted or top-dose-only effect; inactive = no such curve, though single readings can be large or run the other way; also: potency is read from the fitted curve at half-maximal effect; the source files actives as falling curves though it sought activators and does not explain the sign; nearly all actives have a fitted effect of over 65% in size; many hits overshoot -100%
Target sequence (P80244 whole entry, looked up): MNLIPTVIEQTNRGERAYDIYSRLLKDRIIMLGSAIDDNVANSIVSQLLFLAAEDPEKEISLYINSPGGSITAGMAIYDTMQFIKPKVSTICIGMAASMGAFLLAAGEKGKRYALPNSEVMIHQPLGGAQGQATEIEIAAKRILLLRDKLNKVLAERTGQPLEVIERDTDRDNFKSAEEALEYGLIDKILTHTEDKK
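Purified B. subtilis ClpP, 10 microg/mL final in Tris/HCl pH8 with KCl, BSA, glycerol and Tween-20, cleaved an Abz/nitrotyrosine-quenched decapeptide. Fluorescence (ex 320, em 430) was read at 0 and 20 min at room temperature. Delta was normalized to 5.8 microM ADEP and DMSO/no-enzyme controls.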
PINK1 modulator – changes PINK1 expression; PINK1 immunofluorescence, high-content cytometry, 24 h; Potency, µM (titrated, usually from 76.6 µM), for inactives: at the highest dose activation (PINK1 increase), usual class: activators; 0.2% of 410,000 active; AID 624263; active = well fitted activation curve with a large enough effect; inconclusive = small, poorly fitted or top-dose-only effect; inactive = flat fitted curve, though single readings scatter; cell line not stated here;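 also: potency is read from the fitted curve at half-maximal effect; % of control where 0% means no effect; nearly all actives have a fitted effect of over 65% in size; a mitochondrial uncoupler was the plate control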
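Cells are seeded, rested 12 hours, then given compound at five concentrations or DMSO for 24 hours. After fixation, blocking and antibody staining, PINK1 amount and mitochondrial localization are scored; CCCP serves as control.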
gsp ag – activates gsp, the McCune-Albright syndrome mutation; gsp mutant cells, cAMP HTRF, 30 min; control for the full effect not named in the record; Potency, µM (series often up to 76.9 µM), inactives show at the highest dose activation (cAMP increase), hits mostly activators; 0.13% of 340,000 active; active = well fitted activation curve with a large enough effect; inconclusive = small, poorly fitted or top-dose-only effect, or another doubt; inactive = no such curve, though single readings can be large or run the other way; cell line not stated here;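 also: phosphodiesterase inhibitor Ro 20-1724 added with compounds to block cAMP breakdown; potency is read from the fitted curve at half-maximal effect; nearly all actives have a fitted effect of over 60% in size; about a fifth of the inactives were tested at one dose only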
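Cells in DMEM/10% FBS with G418 were pretreated with compounds in DMSO plus […] (300 uM stock) for 30 min at 37C. cAMP was measured by HTRF (cAMP-d2 plus anti-cAMP antibody-K) after 30 min at room temperature.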
D2 ag – human D2 receptor agonism in beta-arrestin assay. P14416. DiscoveRx PathHunter D2 beta-arrestin, luminescence, 90 min; 100% = 57 uM dopamine signal. activation, % (no concentration beside the values). 0.084% of 360,000 active; in the data active = activation above about 40%; inconclusive = about 15% to 40%; inactive = below about 15%; also: compound concentration not given in the record; the text of the record calls up to 30% inactive
Target sequence (P14416 whole entry, looked up): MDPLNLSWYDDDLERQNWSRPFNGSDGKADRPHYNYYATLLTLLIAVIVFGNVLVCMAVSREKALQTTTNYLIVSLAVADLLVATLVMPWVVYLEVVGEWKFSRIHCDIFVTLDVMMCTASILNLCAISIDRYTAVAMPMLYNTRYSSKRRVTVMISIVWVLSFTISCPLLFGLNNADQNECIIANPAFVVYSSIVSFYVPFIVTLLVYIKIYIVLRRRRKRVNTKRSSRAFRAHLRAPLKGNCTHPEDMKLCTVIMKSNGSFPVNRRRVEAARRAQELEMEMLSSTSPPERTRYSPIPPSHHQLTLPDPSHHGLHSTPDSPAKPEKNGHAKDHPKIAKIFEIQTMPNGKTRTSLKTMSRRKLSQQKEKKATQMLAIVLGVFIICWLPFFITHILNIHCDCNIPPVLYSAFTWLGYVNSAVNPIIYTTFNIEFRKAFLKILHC
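Agonist mode: compounds alone added to overnight-plated D2 PathHunter cells for 90 min at 37 C, with 57 uM final dopamine (EC100) defining full response. Beta-arrestin recruitment detected by chemiluminescent reagent, read after 1 h at ambient temperature.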
Sfp PPTase inh – inhibitors of Bacillus subtilis Sfp phosphopantetheinyl transferase; Biochemical Sfp PPTase activity, qHTS; Potency, µM, for the others: max response, negative = inhibition, actives largely listed as inhibitors; 3.5% of 310,000 active; active = well fitted inhibition curve with a large enough effect; inconclusive = small, poorly fitted or top-dose-only effect, or another doubt; inactive = no such curve, though single readings can be large or run the other way;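 also: the enzyme is Sfp with the accession as filed and its product quenches rhodamine fluorescence; potency is read from the fitted curve at half-maximal effect; 0% = enzyme reaction without inhibitor and -100% = no enzyme wells; top concentration of the series not given in the record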
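Step 1, compound plus 15 nM Sfp-PPTase, 15 min, room temperature. Step 2, add rhodamine-CoA (5 uM) and BHQ-2-YbbR (12.5 uM). Step 3, read 525/598 nm fluorescence at 0 and 30 min.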
gsp antag – antagonizes gsp, the McCune-Albright syndrome mutation | gsp-mutant cells, cAMP HTRF, 30 min; control for the full effect not named in the record | Potency, µM (highest dose often 76.9 µM), for inactives: top-dose activity change, negative = inhibition, usual class: inhibitors | 0.4% of 340,000 active | AID 624288; active = falling curve of any shape with a large fitted effect; inconclusive = falling curve, mostly with a smaller effect; inactive = flat or rising curve; cell line not stated here;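 also: intracellular cAMP measured with PDE inhibitor Ro 20-1724 present during compound exposure; potency is read from the fitted curve at half-maximal effect; % is scaled to controls: 0 for no effect and ±100 for the full control effect; nearly all actives have a fitted effect of over 65% in size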
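G418-selected cells were plated in DMEM/10% FBS for 16-24 h at 37C, then treated with compounds plus the PDE inhibitor […] (300 uM solution added) for 30 min at 37C. Intracellular cAMP was measured by HTRF after 30 min lysis at room temperature.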
Menin-MLL FL inh – displaces fluorescein MLL peptide from human menin | AID 1766 | 290,000 tested, under 10 active | Fluorescence polarization, fluorescein-MLL peptide displacement from menin | FP activity change, % at 61.4 µM; inconclusive = falling polarisation curve, or a change in total fluorescence; inactive = total fluorescence flat and polarisation flat or rising; no compound was filed as active; the % refers to the polarisation; negative = inhibition;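 also: % of control where 0% means no effect; inhibitors lower the polarisation; unlabelled MLL peptide was the positive control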
* hit, by the source's call; ? = inconclusive; nt = not tested or not shown; & = joins results of further samples; [ ] = remark or other dose.

SMILES	ClpP mod	PINK1 modulator	gsp ag	D2 ag	Sfp PPTase inh	gsp antag	Menin-MLL FL inh
Cc1onc(-c2ccccc2Cl)c1C(=O)Nc1cccnc1	0.2%	10%[38.3 µM]	-2%	2.1	7%	-6%	-4.0
Cc1ccc(NC(=O)N2CCC(C(=O)NCCC3=CCCCC3)CC2)cc1	-1.4%	8.5%	26%	-0.4	25%	1%	2.7
O=C(COC(=O)c1ccc(O)cc1O)Nc1ccc(Cl)cn1	-2.1%	0.3%	48%	0.2	15%	-7%	nt
COC(=O)CCCC1=CC2=C(c3ccccc3)C(=O)C(C)(OC(=O)C3CCCC3)C(=O)C2=CN1C1CCCCC1 (stereo not drawn)	-4.1%	3.7%	nt	-3.0	-8%&-28%	-10%	-0.3[11.7 µM]
CCCCC1=C([O-])C2N=CC=CC2=[N+](c2ccccn2)C1=O (stereo not drawn)	1.4%	-0.1%	-23%	-2.3	29%	9%	5.6
CCn1c(=O)c2sccc2n(Cc2cccc(C)c2)c1=O	nt	3.2%	1%	-3.3	14%	2%	6.5
CC(=O)N1CCN(C(=O)COC(=O)CNC(=O)c2ccc(C)cc2)CC1	-5.0%	1.1%	-36%[inhibitor]	-3.7	nt	12%	nt
CCN(CC(=O)Nc1ccccc1OC)C(=O)CN1C(=O)NC(C)(c2ccc3ccccc3c2)C1=O (stereo not drawn)	1.2%	2.3%	?	-3.2	nt	-5%	nt
CC(C)OC(=O)c1cc(=O)[nH]c2ccccc12	-28%	-0.3%	6%	2.1	2%	19%	7.6
O=C(c1ccco1)N1CCN(C2CN(C3CCCCC3)S(=O)(=O)C2)CC1 (stereo not drawn)	0.4%	1.9%	nt	3.3	nt	nt	nt
CC(C)C(=O)Nc1ccc(N2CCOCC2)c(S(=O)(=O)Nc2ccccc2Cl)c1	-2.4%	-1.3%	-8%[15.4 µM]	2.1	nt	-9%	nt
O=C(Nc1ccc(NC(=O)c2ccco2)c(Cl)c1)c1cccc([N+](=O)[O-])c1	nt	10.0%	1%[15.4 µM]	-0.6	5%	-7%	-0.4
Cc1ccc(NC(=O)CS(=O)c2ccccc2N)c(C)c1 (stereo not drawn)	nt	-0.4%	17%[15.4 µM]	-4.5	8%	-2%	nt
COc1ccc(S(=O)(=O)N2CCOCC2)cc1NC(=O)CSc1n[nH]c(C(C)C)n1	nt	-0.3%	-3%[15.4 µM]	-0.5	25µM*	-3%	-1.0
C/C(CC(=O)Nc1cc(C)ccn1)=N\NC(=O)c1cccc(C)c1	-2.2%	-0.9%	?	-3.9	7%	4%	-0.7
COc1cccc(CC(=O)Nn2c(C)nc3ccccc3c2=O)c1	0.1%	-4.6%[38.3 µM]	-25%	2.2	15%	1%	3.8
Cc1ccc(C(=O)N2C(CC(=O)Nc3ccc(Cl)cc3)C(=O)NC3CCCCC32)cc1 (stereo not drawn)	nt	5.0%	-7%[15.4 µM]	2.6	-11%	5%	7.7
COc1ccccc1CN=C1Nc2ccccc2CS1	nt	0.5%	12%[15.4 µM]	-1.2	-29%	5%	3.2
O=C1N=c2ccccc2=C1c1sc(=O)[nH]c1O	-0.9%	-0.3%	-25%	-12	-12%	-3%	0.0
CSc1ccc(S(=O)(=O)NCc2ccccc2Cl)cc1	0.4%	-2.3%[38.3 µM]	34%	-0.7	8%	2%	-2.8
CC1(C)CC(=O)C=C(c2ccc3[nH]ccc3c2)C1	0.8%	0.4%	-6%	-4.8	nt	-8%	nt
CCc1nnc(NC(=O)c2cc3c(s2)CCCCC3)s1	-0.3%	5.0%	-9%[15.4 µM]	-2.7	nt	-12%	nt
CCOC(=O)C(=Cc1ccc(-c2ccsc2C(=O)OC)o1)C(=O)OCC	-3.0%	-2.9%	-3%	-2.7	-4%	6%	2.3
O=C(CSc1cn(CCNC(=O)c2cccs2)c2ccccc12)NCc1ccccc1	-0.1%	1.7%	-14%	6.1	-8%	-28%	2.2
Cc1ccc(/C=C/C(=O)c2cc(Br)ccc2OC(=O)c2ccco2)cc1	-1.3%	7.9%	1%	-3.2	6%	6%	6.0
O=C(COC(=O)c1ccc2c(c1)OCO2)Nc1ccccc1Cl	-29%	-0.2%	3%	-3.3	nt	6%	nt
N#CC(c1ccc(O)cc1)N1CCOCC1 (stereo not drawn)	0.8%	-1.0%[38.3 µM]	-37%[inhibitor]	-2.9	-2%	12%	3.6
O=C(Nc1ccc(C(=O)Oc2ccccc2)c(O)c1)c1ccco1	-11%	?	8%	1.6	-6%	35µM*	5.4
CCN(CC)CCN1C(=O)C(=O)/C(=C(/O)c2cccc(OC)c2)C1c1ccccn1 (stereo not drawn)	1.6%	1.3%	7%	-1.2	?	-8%	0.3
CCOc1cc(C2C(C#N)=C(N)OC3=C2C(=O)CC(C)(C)C3)cc([N+](=O)[O-])c1O (stereo not drawn)	nt	1.2%	2%	-1.9	3%	-17%	1.2
COc1ccccc1CCC(=O)N1CCN(C(=O)c2ccccc2)CC1	nt	0.3%	-8%	1.6	2%	0%	-1.7
CCN(CC)C(=O)c1sc2nc(-c3cccs3)cc(-c3cccs3)c2c1N	-19%	2.4%	37%	-4.5	-6%	-11%	0.4
Cc1c(NC(=O)CN2C(=O)c3ccc([N+](=O)[O-])cc3C2=O)c(=O)n(-c2ccccc2)n1C	nt	0.6%	-14%[15.4 µM]	-19	-2%	nt	-0.4
O=C(c1ccc2c(=O)n3c(nc2c1)CCCCC3)N1CCN(Cc2ccccc2)CC1	-2.1%	?	-14%	1.3	15%	-10%	0.6
CCCOc1ccc(Cc2c(Cl)nc(SC)nc2N(C)C)cc1	nt	5.9%	-28%	7.7	-10%	-7%	0.2
COc1ccccc1CN1CC(C(=O)N(C)CCc2nc3ccc(F)cc3[nH]2)CCC1=O (stereo not drawn)	0.5%	-1.6%	16%	1.9	12%	16%	nt
O=C(O)CC1(CC(=O)Nc2ccc(Br)cc2)CCCCC1	-1.4%	0.9%	17%[15.4 µM]	-0.7	9%	-14%	-1.3
OC(CON=C1c2ccccc2-c2ccccc21)CN1CCNCC1 (stereo not drawn)	nt	-0.4%	10%[15.4 µM]	-1.0	-54%	9%	0.0
O=C(Oc1ccccc1)c1ccc2nsnc2c1	0.7%	-4.6%[38.3 µM]	3%	-3.7	-9%	-7%	1.9
O=C(Nc1ccc(Cl)cc1Cl)NC1CCN(S(=O)(=O)c2ccc(F)cc2)CC1	nt	?	7%[15.4 µM]	-1.5	16%	2%	?
COC(=O)CNC(=O)CNC(=O)c1nn(-c2ccc(OC)c(Cl)c2)c(=O)c2ccccc12	?	-0.5%	21%[15.4 µM]	-3.2	27%	-12%	4.1
Cc1ccc(C(=O)NCCN2CCOCC2)cc1S(=O)(=O)N1CCCCC1	-1.0%	3.8%	12%	-2.1	6%	-4%	nt
COC(=O)c1ccc(COC(=O)C2CCN(S(=O)(=O)c3ccc(C)c(C)c3)CC2)o1	nt	2.3%	16%[15.4 µM]	-1.3	nt	6%	nt
NNc1ncnc2scc(-c3ccc(Cl)cc3)c12	-8.8%	?	9%[15.4 µM]	0.4	-3%	7%	3.6
CCOC(=O)C(Oc1ccc2c(-c3ccccc3)cc(=O)oc2c1C)c1ccccc1 (stereo not drawn)	0.4%	1.7%	-1%[15.4 µM]	-0.1	7%	6%	0.7
CCCn1c(N)c(C(c2ccc(OC)cc2)N2CCN(c3ccccc3)CC2)c(=O)[nH]c1=O (stereo not drawn)	-1.0%	2.5%	-11%	6.6	-24%	5%	3.7
O=C(CC1C(=O)NCCN1C(=O)Nc1ccc(F)cc1)Nc1cc(Cl)ccc1Cl (stereo not drawn)	1.8%	1.1%	-23%	5.5	1%	4%	0.0
COc1ccc(C(=O)Nc2ccc(O)c3c(=O)cc(-c4cccc(Cl)c4)oc23)cc1	2.4%	11%	nt	-2.5	-2%	?	2.5
CC(C)OC(=O)c1c(NC(=O)CCC(=O)O)sc2c1CCCCC2	-7.8%	2.8%	0%	-1.5	4%	?	-1.0
COc1ncc2nc(-c3ccc(Cl)cc3)c(=O)n(Cc3cccs3)c2n1	nt	1.2%	nt	nt	-1%	nt	1.7
Cc1ccc(NC(=O)CS(=O)CC(=O)NCC2OCCc3ccccc32)c(C)c1 (stereo not drawn)	-2.7%	-6.1%	43%	-2.6	3%	8%	5.8
CCC(C)c1ccc(NC(=S)NC2CCN(Cc3ccccc3)CC2)cc1 (stereo not drawn)	1.3%	-1.5%	10%	-3.0	-4%	-6%	3.4
COC(=O)c1ccc(C(=O)N2CCCC(Nc3ccc(F)c(F)c3)C2)cc1 (stereo not drawn)	-0.1%	3.0%	?	-4.0	7%	-11%	-3.4
CN1CCN(CC(O)(c2ccc(Cl)cc2)c2ccc(Cl)cc2)CC1	nt	-0.7%	8%[15.4 µM]	-1.3	-14%	14%	-2.0
CCOc1ccc(NC(=O)CN(C)C(=O)c2ccccc2OCCOc2ccccc2)cc1OCC	-1.7%	-2.4%	-5%	-3.3	nt	-8%	nt
O=C(NCCc1ccccc1)/C(=C\c1ccc([N+](=O)[O-])cc1)NC(=O)c1ccc(Br)cc1	-3.2%	?	31%	-7.4	-3%	0%	1.3
O=C(N/N=C\c1ccccn1)c1cccc(C(=O)N/N=C\c2ccccn2)n1	nt	14%	0%	-3.1	nt	-2%	nt
NCCCn1c(C(=O)c2ccc(Cl)cc2)c2ccc(C(F)(F)F)cc2[n+]1[O-]	-3.1%	10%	nt	1.4	nt	12%	nt
CC(=O)Nc1ncc(Cc2cc(Cl)ccc2Cl)s1	1.1%	3.1%	-29%	-0.4	0%	7%	4.1
COc1ccc(OCCCNCCc2ccccc2)cc1	nt	-0.9%	6%	-2.1	7%	4%	0.6

Rows are unselected; about 5.1% have a hit in one of these screens.
